Source: PubChem BioAssay
Yeast UUG start: alters start codon recognition fidelity in yeast; hit rate 0.13% among 350,000; activity score, % at 18.7 µM; S. cerevisiae UUG-firefly luciferase reporter, luminescence/redox ratio;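 active = replicate mean at a twofold rise or more, about +100% in these data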;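 also: firefly luciferase made from a UUG start codon reports start codon fidelity; reporter light over untreated wells divided by growth signal over untreated wells; some hits fall short of that in this replicate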
Rce1 inhib: blocks yeast Ras-converting enzyme | hit rate 0.27% among 290,000 | yeast membranes, quenched prenylated peptide cleavage fluorescence | AID 2563 | Q03530 | calls only;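 active = fall in fluorescence gain of 50% or more versus controls, with final raw signal at or below 3038400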;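 also: plate controls were neutral control wells for no effect and wells lacking membranes for full effect; tested at 10 µM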
Target sequence (Q03530 whole entry, looked up): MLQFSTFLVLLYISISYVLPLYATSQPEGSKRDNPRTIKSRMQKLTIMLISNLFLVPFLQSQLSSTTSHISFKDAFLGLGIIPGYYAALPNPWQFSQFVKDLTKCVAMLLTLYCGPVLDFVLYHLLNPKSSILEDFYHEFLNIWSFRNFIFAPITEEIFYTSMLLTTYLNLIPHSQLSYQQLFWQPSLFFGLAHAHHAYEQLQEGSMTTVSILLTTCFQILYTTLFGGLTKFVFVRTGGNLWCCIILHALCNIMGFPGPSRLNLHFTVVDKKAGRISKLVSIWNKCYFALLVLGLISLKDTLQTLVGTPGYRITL
PABP FP inh: PABP-poly(A) binding inhibition; P11940; PABP-poly(A) RNA binding, fluorescence polarization; inhibition, % at 35 µM; hit rate 1% among 290,000;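 active = 50% or more with normal probe brightness, or confirmed in later tests; about a fifth of its hits are not listed in these tables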;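 also: calls also rest on retests at 20 µM and on dose response follow-up; controls were probe without protein and protein plus probe with vehicle; some compounds called inactive have numbers as strong as hits; many hits fall short of the cut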
MT1-MMP act inh: blocks activation of human MT1-MMP | GFP/RFP ratio change, % at 20 µM | HT1080 RFP-PRO-GFP cells, GFP/RFP ratio fluorescence, overnight; percent of plate control window, DMSO zero | hit rate 0.061% among 360,000 | AID 651647 | P50281;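 active = GFP/RFP ratio change of at least 30% with cell ATP level not reduced by more than half and red fluorescence within 50% of control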; also: strong numbers were not always called active
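Test system: HT1080 cells expressing an RFP-PRO-GFP fluorescent reporter construct / Compound dosing: single-point 20 µM compound, 1% DMSO / Schedule: cells overnight before dosing, compound overnight, 37 °C, 5% CO2 / Evaluation: GFP/RFP fluorescence ratio / Control set: DMSO and RFP-L50D-GFP cell wells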
eIF4H FP inh: inhibitors of RNA binding by human eIF4H. Q15056. eIF4H fluorescence polarization binding assay. inhibition, % at 35 µM. hit rate 0.94% among 290,000;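 active = 50% or more with normal probe brightness, or confirmed in later tests; about a fifth of its hits are not listed in these tables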;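 also: calls also rest on retests at 20 µM and on dose response follow-up; 0% = protein and probe with vehicle and 100% = probe without protein; strong numbers were not always called active; many hits fall short of the cut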
Env fusion inh: HIV envelope-mediated fusion inhibition; HeLa-JRFL Env/CEM21 cell fusion, luciferase; hit rate 1.1% among 360,000; inhibition, % at 12.3 µM; AID 651610;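 active = mean replicate inhibition score of at least 50 and every replicate individually at or above 50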;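 also: 0% = plate neutral controls and 100% = maraviroc near 300 nM; one replicate is shown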
CSC inhib: cancer stem cell inhibition; cancer stem cell-like cells viability, luminescence; inhibition, % at 7.5 µM; hit rate 1.1% among 300,000; AID 2717;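 active = mean at 75% or more and at least half the replicates too; tested in HMLE shEcad cells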;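 also: 0% = median of negative and 100% = median of positive control wells; the first replicate is given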
MT1-MMP act inh RFP: second read-out of MT1-MMP act inh, no call of its own (marks repeat the call); RFP signal change, %; measured here: RFP expression control read;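 0 = vehicle wells; hits needed this value within 50% of zero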
An asterisk follows results filed as active; i = inactive; · = no result given; & = joins results of further samples. These rows are one share of the data; count on the stated rates, not on these rows.

SMILES | Yeast UUG start | Rce1 inhib | PABP FP inh | MT1-MMP act inh | MT1-MMP act inh RFP | eIF4H FP inh | Env fusion inh | CSC inhib
Cc1cc(C)cc(NC(=O)CSc2nnc(-c3ccc(S(=O)(=O)N4CCCC4)cc3)o2)c1 | -25.0 | i | -2.3 | 6.5 | 9.0 | -5.9 | · | 3.7
COCCNC(=S)NN(c1ccccc1)c1ccccc1 | · | i | 5.1 | 0.3 | 2.7 | -6.9 | 8.1 | 5.7
CC(C)C1Nc2ccc(C(=O)NCCCN3CCOCC3)cc2NC1=O (centres undefined) | -13.2 | i | 3.9 | 0.2 | 3.8 | -7.7 | · | -7.7
CCc1ccc2[nH]c(C(=O)Nc3ccc(C)c(F)c3)cc2c1 | -12.4 | i | 0.7 | 1.6 | -3.5 | -1.8 | -42.2 | 15.6
Cc1ccc2c(c1)C(c1ccc(F)cc1)N(C(=O)c1ccc(S(=O)(=O)N(C)C)cc1)CC(=O)N2 (centres undefined) | -26.6 | i | 2.6 | -1.0 | -1.7 | -6.1 | 24.6 | -13.4
c1ccc2c(c1)ncn2CCOCCOCCn1cnc2ccccc21 | -38.8 | i | -15.8 | 2.1 | -2.8 | -1.0 | · | -9.6
OC(CNC1CCCCC1)CNC1CCCCC1 | 6.6 | i | 3.1 | -2.1 | 1.8 | 6.6 | 6.1 | 1.7
CCCCCC(=O)N(O)C1CC(=O)N(c2ccccc2)C1=O (centres undefined) | · | i | 4.0 | 6.7 | 5.8 | -3.5 | · | 16.5
C=CCC1(N(C(C)=O)c2ccccc2C)CCCCC1 | · | i | -0.4 | -2.9 | -3.2 | -1.7 | -3.8 | -11.5
CC(=O)Nc1ccc(S(=O)(=O)C(C#N)c2nc3ccccc3nc2NCCCO)cc1 (centres undefined) | -17.7 | · | 8.7 | -0.3 | 8.3 | 22.8 | 7.9 | -5.4
Cc1ccc(/C=C/C(=O)O)cc1S(=O)(=O)NCc1ccco1 | 8.5 | i | 22.7 | 3.3 | 3.3 | 5.0 | 4.0 | -2.5
CCc1nnc(NC(=O)CSc2ncnc3c2cnn3-c2ccc(OC)cc2)s1 | -13.9 | i | -7.4 | -0.1 | -2.3 | 4.8 | -37.1 | 2.5
CCOC(=O)Cn1c(=O)oc2cc(S(=O)(=O)NC3CCCCC3)ccc21 | 0.5 | i | 1.5 | 10.2 | 9.8 | 2.4 | · | -14.9
C=C(C)n1c(=O)[nH]c2ccccc21 | -19.2 | i | 2.0 | 5.4 | 8.7 | 2.2 | -177.1 | -9.1
Cc1ccc(Cc2c(-c3cccc(Br)c3)nc3cc(C)c(Br)c(C)n23)cc1 | -14.5 | · | · | 1.6 | -2.6 | · | -0.4 | ·
O=C(N/N=C/c1cccnc1)C1CC1(c1ccccc1)c1ccccc1 (centres undefined) | · | i | 2.9 | -2.0 | -9.6 | -4.7 | 33.0 | -20.3
CCCNC(=O)CSc1nnc(-c2ccc(F)cc2)o1 | · | i | -16.3 | -3.5 | 1.4 | -5.9 | 0.8 | -6.3
CC(Oc1ccc(F)cc1)C(=O)Nc1ccc(S(=O)(=O)NC2=NCCCCC2)cc1 (centres undefined) | 9.6 | · | · | 2.9 | -3.7 | · | -2.4 | -8.8
COc1ccc(OCC(=O)Nc2ccc(Cl)cc2)cc1 | · | i | 1.5 | -2.7 | -4.1 | 3.5 | -2.5 | -0.6
CC(c1nccs1)N(C)C(=O)CCc1nnc(Cc2c[nH]c3ccccc23)o1 (centres undefined) | -9.2 | i | -5.2 | -0.2 | 1.8 | 5.7 | 6.6 | -11.3
COC(=O)[C@]1(C)N[C@H](CN(C)C(=O)c2ccccc2)[C@@H]2C(=O)N(Cc3ccccc3)C(=O)[C@@H]21 | -13.2 | · | · | 3.3 | 4.4 | · | 28.4 | ·
CCCC[C@@H]1CNCCN1CCc1cc(C(F)(F)F)cc(C(F)(F)F)c1 | -4.9 | i | · | -0.7 | 3.9 | · | 39.2 | 15.3
O=[N+]([O-])c1ccc(O)c(/C=N/n2c(CO)nc3ccccc32)c1 | -20.2 | i | 5.9 | 4.7 | 3.3 | 5.3 | -6.6 | 2.3
O=C(NC(=O)c1ccccc1Cl)C(=O)Nc1ccc(Cl)cc1 | -8.5 | i | -3.7 | -0.8 | 7.7 | -6.1 | -3.2 | 2.1
COC(=O)Cc1n[nH]c(=S)[nH]c1=O | -28.9 | i | 26.7 | -1.6 | 2.0 | 13.1 | · | -5.6
Cc1cccc(NC(=O)/C(=C\c2cccs2)NC(=O)c2ccccc2)c1 | -3.5 | i | 1.6 | 5.9 | 1.0 | -2.2 | · | -1.1
COc1ccc(OC)c(NC(=O)COC(=O)c2ccc(OC)c(S(=O)(=O)N3CCOCC3)c2)c1 | 1.6 | · | · | -3.1 | -2.4 | · | -1.7 | -13.0
COc1ccccc1C(=O)OCC(=O)c1cccc([N+](=O)[O-])c1 | · | i | -3.4 | 6.0 | 4.5 | -3.8 | 16.8 | -12.6
CCOc1ccc2ncc(S(=O)(=O)c3ccccc3)c(N3CCN(c4ccccc4)CC3)c2c1 | · | i | · | -6.7 | -3.9 | · | 9.7 | 0.0
Cc1ccc(F)cc1NC(=O)COC(=O)c1ccc2ncsc2c1 | -0.5 | · | · | -0.8 | -0.4 | · | 0.6 | -14.9

3 of the compounds above, tab-delimited.
Compound	Yeast UUG start	Rce1 inhib	PABP FP inh	MT1-MMP act inh	MT1-MMP act inh RFP	eIF4H FP inh	Env fusion inh	CSC inhib
COc1ccc(OC)c(NC(=O)COC(=O)c2ccc(OC)c(S(=O)(=O)N3CCOCC3)c2)c1	1.6	·	·	-3.1	-2.4	·	-1.7	-13.0
COc1ccccc1C(=O)OCC(=O)c1cccc([N+](=O)[O-])c1	·	i	-3.4	6.0	4.5	-3.8	16.8	-12.6
CCOc1ccc2ncc(S(=O)(=O)c3ccccc3)c(N3CCN(c4ccccc4)CC3)c2c1	·	i	·	-6.7	-3.9	·	9.7	0.0

More records:
SMILES | Yeast UUG start | Rce1 inhib | PABP FP inh | MT1-MMP act inh | MT1-MMP act inh RFP | eIF4H FP inh | Env fusion inh | CSC inhib
O=C(NCCN1CCOCC1)C1CC(=O)N(c2ccc(Cl)cc2)C1 (centres undefined) | -10.4 | · | 3.0 | -0.2 | 0.8 | 1.6 | 2.4 | -2.5
COc1ccccc1C(=O)N1CCN(S(=O)(=O)Cc2ccccc2)CC1 | -11.4 | i | 2.5 | -0.2 | -3.6 | 0.2 | -7.7 | -7.3
COc1ccc(N2CCN(S(=O)(=O)c3ccc(Br)s3)CC2)cc1 | -10.2 | i | 4.3 | -0.5 | -12.6 | 7.2 | -12.7 | -5.7
COc1cccc(SCc2noc(C(=O)NCCCN3CCOCC3)c2C(=O)NCCCN2CCOCC2)c1 | -6.4 | i | · | 4.5 | 2.8 | · | 4.7 | -7.1
CN1C(=O)CSc2ccc(NC(=O)NCCC3=CCCCC3)cc21 | -14.9 | i | -5.0 | 5.7 | -1.9 | -2.0 | · | 12.9
COc1ccc(Cc2nnc(NC(=O)Nc3ccccc3)s2)cc1OC | -11.6 | i | 1.5 | 0.0 | -4.9 | 4.4 | -15.7 | -2.3
Cn1c(NCCN(CCO)CCCc2ccc([N+](=O)[O-])cc2)cc(=O)n(C)c1=O | -13.3 | i | · | 0.1 | 0.2 | · | 9.4 | 2.0
Nc1nc(N)nc(-c2ccccc2-c2nc(N)nc(N)n2)n1 | -30.3 | i | 7.6 | 1.1 | -0.1 | -1.7 | -5.8 | -3.6
O=P(O)(CP(=O)(c1ccccc1)c1ccccc1)c1ccccc1O | -12.5 | i | -9.0 | 2.6 | 4.0 | -8.7 | · | -11.5
CCN(CC)CCCN1C(=O)C(=O)/C(=C(/O)c2ccccc2)C1c1cc(OC)ccc1OC (centres undefined) | 3.9 | i | -4.0 | 10.6 | 1.8 | 0.7 | · | ·
CCOc1ncccc1C(=O)N1CCN(S(=O)(=O)c2ccccc2)CC1 | -5.2 | i | -0.5 | 0.9 | 4.1 | 6.8 | 7.8 | -4.9
O=C(NCc1ccccc1)c1cc(C2CCCN(C(=O)CCCc3ccccc3)C2)on1 (centres undefined) | 2.7 | · | · | -3.4 | -5.8 | · | 1.7 | ·
Cc1cccc(NC(=O)C2(c3cccs3)CCOCC2)n1 | · | i | -12.3 | 1.0 | 3.3 | 21.6 | -7.1 | 8.3
C=CCn1c(-c2cccnc2)n[nH]c1=S | 20.3 | i | -3.4 | 7.2 | 6.1 | 1.1 | 9.8 | -7.5
CC(=O)Nc1cc(ON=C(C)C)cc([N+](=O)[O-])c1 | · | i | 3.8 | -0.3 | 1.1 | -3.4 | 3.8 | 17.7
CCOc1ccc(-n2ccc(=O)c(C(=O)Nc3ccc(S(=O)(=O)Nc4ncccn4)cc3)n2)cc1 | 10.3 | i | 2.9 | -1.2 | 4.1 | 7.5 | 14.1 | -5.4
CC1CCC2(CC1)NC(=S)N(c1ccccc1)N2 (centres undefined) | -19.5 | · | 9.0 | 8.8 | 1.7 | -3.1 | -25.3 | ·
C[C@@H]1CN([C@H](C)CO)C(=O)CCCn2cc(nn2)CO[C@H]1CN(C)C(=O)Nc1cccc(Oc2ccccn2)c1 | 6.3&13.5 | · | · | -5.8 | -4.8 | · | 7.4 | ·
CN(Cc1ccccc1)C(=O)Nc1ccccc1 | -23.1 | i | -13.9 | 2.3 | 4.7 | -6.9 | 16.5 | -4.8
CC(S(=O)(=O)c1ccccc1)S(=O)(=O)c1ccccc1 | -16.2 | · | · | -0.5 | 0.1 | · | -11.1 | ·
CC(=O)c1ccc(OCC(=O)OC(C)C(=O)NC2CCCCC2C)cc1 (centres undefined) | -10.5 | · | · | -2.0 | 2.7 | · | · | -7.9
CC1Cc2ccccc2N1C(=O)CCS(=O)(=O)c1cccc2nonc12 (centres undefined) | · | i | -5.1 | 0.0 | 0.3 | 3.2 | 8.4 | 7.8
Cc1ccccc1OC(C)C(=O)NC1CCCC1 (centres undefined) | -20.3 | i | -4.9 | -3.9 | -0.7 | -12.6 | · | 15.3
CCCCCCCC(=O)Nc1cc(C(=O)NCc2ccc(C)cc2)ccc1N1CCC2(CC1)CC(c1ccccc1)=NO2 | -9.3 | i | -18.5 | 1.3 | 1.5 | -2.0 | -6.8 | 7.0
COc1ccccc1CN(Cc1nc2ccccc2c(=O)[nH]1)C(=O)Nc1ccccc1 | 0.0 | i | 11.9 | -6.1 | 3.0 | -9.4 | · | ·
Cc1ccc(S(=O)(=O)N2CCCC(C(=O)Nc3ccc(NC(=O)c4ccccn4)cc3)C2)cc1 (centres undefined) | -7.2 | i | 3.3 | 4.6 | -6.5 | 4.7 | -46.4 | 0.5
CCOc1ccc(NC2CCN(C(C)=O)CC2)cc1 | -23.9 | i | -1.8 | 5.5 | 7.0 | 5.5 | · | 0.0
O=C(CC1(CC(=O)N2CCOCC2)CCCC1)Nc1ccc(F)cc1 | -12.7 | · | · | 3.3 | 0.2 | · | -7.1 | 10.8
O=C(c1cc(COc2ccc(F)cc2Cl)on1)N1CCCCC1c1cccnc1 (centres undefined) | -21.5 | i | 7.6 | 3.4 | -8.1 | -9.0 | -11.4 | 15.7
CCCCN1C(=O)C(O)=C(C(C)=O)C1c1ccccc1[N+](=O)[O-] (centres undefined) | · | i | 9.7 | -6.6 | -0.5 | -1.0 | 16.4 | 2.6
COc1ccc(NC(=O)Nc2cc(C(C)(C)C)on2)cc1OC | -11.9 | i | 3.1 | -0.9 | -1.7 | 12.7 | 6.2 | 3.8
CCCCC(CC)Cn1c2nc3ccccc3nc2c2c(=N)oc(C)nc21 (centres undefined) | · | i | 35.0 | · | · | 8.6 | · | ·
Cc1ccc(-c2csc(NC(=O)c3c(C)noc3C)n2)cc1C | -12.1 | · | · | 4.2 | -14.9 | · | · | 15.2
Clc1ccccc1C(c1ccccc1)(c1ccccc1)n1ccnc1 | -23.6 | i | 9.3 | -12.6 | -21.8 | 1.2 | 2.5 | 29.2
